# Mtb growth: Mycobacterium tuberculosis H37Rv growth inhibition, cell based, confirmatory dose response (AID 1949); most inactive calls were filed without a number and no value below 0 was filed; inhibition, % at 10 µg/mL, or IC50 in µg/mL where a hit was titrated; actives 1.6% (n = 100,000);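 active means confirmed in a dose series; inconclusive means about 50% or more but not retested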;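 further: bacteria grown 7 days with compound before Alamar blue readout; 0% = untreated bacteria and 100% = reference antibiotic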
# * marks the source's active call; other numbers are inactive results; i = inactive; ? = inconclusive. This is a subset; rates above refer to the full screens.
mol | Mtb growth
CC(C)c1ccccc1NC(=S)NC(=O)c1ccccc1 | i
O=C(NCc1cccnc1)C1CCN(C(=O)c2ccc(Cl)cc2Cl)CC1 | i
O=C(Cc1ccc(F)cc1)Oc1ccc(Cl)cc1C(=S)N1CCOCC1 | i
CC(C)N(C(=O)c1ccccc1-c1ccccc1)C(C)C | i
Cc1ccc(C)n1NC(=O)c1ccc(O)cc1 | i
Cc1ccc(C(=O)Nc2ccc(N3CCN(C(=O)c4ccc(C)cc4)CC3)cc2)cc1 | i
COC(=O)C1=CN(C2CCCCC2)C=C(C(=O)OC)C1c1cccc(Cl)c1Cl | i
CCCCOc1ccc(C(=O)N2CCN(c3ncccn3)CC2)cc1 | i
N#Cc1cc(Nc2ccc3c(c2)CCC3)c([N+](=O)[O-])cc1C#N | ?
COC(=O)c1ccccc1NC(=S)NC(=O)c1cccs1 | i
COc1ccc(CCNC(=O)c2cccc(C(=O)NCCc3ccc(OC)c(OC)c3)c2)cc1OC | i
Cc1nc(-c2ccccc2)c2ccccn12 | i
Cc1cc(C)cc(OCc2nc(-c3cccnc3)no2)c1 | 2%
COC(=O)c1c(NC(=O)c2cc(OC)cc(OC)c2)sc2c1CCC2 | 1%
COc1ccc(N(C(C)C(=O)Nc2cc(Cl)ccc2C)S(C)(=O)=O)cc1 (stereo unspecified) | i
CCN(CC)C(=O)C(=O)Nc1ccc(OC)c(OC)c1 | i
Cc1cccc(NC(=S)Nc2ccc(N3CCOCC3)cc2)c1C | i
CCOC(=O)c1c(NC(=O)C2CCN(S(=O)(=O)c3cccs3)CC2)sc(C)c1C | 0%
CN(c1ccccc1C(=O)NCC1CCCO1)S(C)(=O)=O (stereo unspecified) | 2%
COc1ccccc1OCC(=O)Nc1ccccc1C(=O)N1C(C)CCCC1C (stereo unspecified) | i
O=C(CN(Cc1ccc(F)cc1)S(=O)(=O)c1ccc(Cl)cc1)Nc1ccc2c(c1)OCCO2 | 1%
Cn1c(=O)c2c(ncn2CCCN)n(C)c1=O | i
O=C(CCCOc1ccccc1)Nc1cccc(C(=O)O)c1 | i
CCCCC(=O)Nc1cccc(NC(=O)c2ccc(Br)cc2)c1 | i
Cc1ccccc1Oc1nc2c(c(=O)n(C)c(=O)n2C)n1Cc1ccc(Cl)cc1 | 1%
Cc1ccc(CC2CC(=O)N(c3ccc(C(=O)O)cc3)C2=O)cc1 (stereo unspecified) | i
Cc1occc1C(=O)Nc1ccc(Cl)c(Cl)c1 | 5%
COc1ccc(C)cc1NC(=O)c1cncc(Br)c1 | i
COc1ccc2nc(N/C(N)=N/C(=S)Nc3ccccc3)nc(C)c2c1 | ?
Cc1cc(C)n(C(=O)c2ccc(C)c(S(=O)(=O)N3CCCCC3)c2)n1 | i

# New compounds follow:
mol | Mtb growth
COc1cc2c(cc1OC)C(C)=NC(C)(C)C2 | i
Fc1ccc(C2C=C(c3ccc(Cl)cc3)Nc3ncnn32)cc1 (stereo unspecified) | i
Cc1cc(C)nc(SCC(=O)NC2=NN=C(c3ccccc3)CS2)n1 | i
Cc1ccc(C(=O)Nc2sc(Cc3ccccc3)c(C)c2C(N)=O)cc1Br | i
CCCCNCCOc1ccc(C(C)C)c(C)c1 | i
O=C(Nc1ccc(I)cc1C(=O)NCC1CCCO1)c1ccco1 (stereo unspecified) | i
Cc1cc(C)n(S(=O)(=O)c2cc(C(=O)O)c(Cl)cc2Cl)n1 | i
N#Cc1c(NC(=O)Cn2c(=O)oc3cc(Br)ccc32)sc2c1CCCC2 | i
O=C(NCCCO)c1ccc(CSc2nc3sc4c(c3c(=O)[nH]2)CCC4)cc1 | i
CCn1c(SCC(=O)Nc2cccc(OC)c2)nnc1C(C)NC(=O)c1ccc(Cl)cc1 (stereo unspecified) | i
O=C(Nc1ccc(C(F)(F)F)cc1Cl)c1ccc(Cn2cc(Br)cn2)o1 | 11%
O=c1[nH]c2ccccc2cc1CN(CC1CCCO1)S(=O)(=O)c1ccccc1 (stereo unspecified) | i
COc1ccc(-c2csc3ncn(Cc4ccccc4F)c(=O)c23)cc1OC | 2%
O=C(Cc1ccccc1[N+](=O)[O-])Nc1ccccc1C(=O)NCc1ccco1 | i
COc1ccc(NC(=O)Cn2cnc3sc(C(=O)Nc4ccccc4)c(C)c3c2=O)c(OC)c1 | i
CCS(=O)(=O)Nc1cc(Cl)ccc1OC | i
Cc1cc(F)ccc1S(=O)(=O)Nc1ccc(NS(=O)(=O)c2ccc(F)cc2C)cc1 | i
COc1ccccc1-n1c(C)c2c(C)nnc(C)c2c1C | i
COc1ccc([N+](=O)[O-])cc1C(=O)Nc1ccccc1C(=O)O | i
CCN(CC)c1ccc(/C=C(\C#N)C(N)=S)cc1 | i
COc1ccccc1C1C(C(=O)c2ccco2)=C(O)C(=O)N1c1cc(C)on1 (stereo unspecified) | i
O=C(c1ccc(S(=O)(=O)N2CCOCC2)cc1)N1CCN(c2cccc(Cl)c2)CC1 | i
O=C(NNC(=S)NCCCN1CCOCC1)c1ccncc1 | i
CC(=O)Oc1cccc(C(=O)Nc2ccc(-c3nc4cc(C)ccc4o3)cc2)c1 | i
COC(=O)c1sc2nc[nH]c(=O)c2c1C | i
COc1ccc(-c2noc(COc3ccc(C(C)(C)C)cc3)n2)cc1OC | 13%
COc1cccc(C2NC(=S)NC(C)=C2C(=O)OCc2ccccc2)c1 (stereo unspecified) | 8%
Nc1ccc(N2CCOCC2)c(Cl)c1 | i
CCCCOc1ccc(C(=O)NC(=S)Nc2ccc(NC(=O)c3ccccc3Cl)c(OC)c2)cc1 | i
CN(Cc1ccccc1)S(=O)(=O)c1cccc2cccnc12 | 5%

# Of the compounds above, these have an NH in an aromatic ring:
mol | Mtb growth
O=C(NCCCO)c1ccc(CSc2nc3sc4c(c3c(=O)[nH]2)CCC4)cc1 | i
O=c1[nH]c2ccccc2cc1CN(CC1CCCO1)S(=O)(=O)c1ccccc1 (stereo unspecified) | i
COC(=O)c1sc2nc[nH]c(=O)c2c1C | i

# The list goes on:
mol | Mtb growth
Cn1c(=O)c2c(nc(NCCc3ccccc3)n2CC(=O)NCCc2ccccc2)n(C)c1=O | 1%
Cc1ccc(C)c(OCC(=O)Nc2ccc(S(=O)(=O)Nc3nccs3)cc2)c1 | 11%
CCCCn1c(=N)c(S(=O)(=O)c2ccccc2)cc2c(=O)n3ccccc3nc21 | i
Cn1c(SCC(=O)N2CCOCC2)nc(O)cc1=O | i
O=C(Nc1nnc(COc2ccc(Cl)cc2)s1)c1cc(-c2ccccc2)nc2ccccc12 | 13%
CCOc1ccc(NC(=O)Nc2ccc3nccnc3c2)cc1 | 4%
CC1(C)Cc2c(sc(NC(=S)NC(=O)c3ccccc3)c2C#N)CS1 | 9%
Nc1nc(-c2ccco2)nn1C(=O)c1ccc(F)cc1 | 2%
Fc1cccc(Cl)c1Cn1cc(Cl)c(NC(=S)NCCc2ccccc2)n1 | i
CCOC(=O)C1CCN(C(=O)CN(c2cccc(F)c2)S(C)(=O)=O)CC1 | 1%
CCN1CCN(C2CC(=O)NC2=O)CC1 (stereo unspecified) | 0%
O=C(Nc1ccc(-c2noc(-c3ccc(F)cc3)n2)cc1)c1cccs1 | i
S=C(Nc1ccc(Oc2ccccc2)cc1)NC1CCCC1 | ?
CCC(=O)N1N=C(c2ccc(Cl)cc2)CC1c1ccccc1 (stereo unspecified) | 9%
CC1(C)Cc2nc3sc(C(=O)NCCO)c(N)c3cc2CS1 | i
O=C(CN(c1ccccc1F)S(=O)(=O)c1ccccc1)Nc1ccc(F)c(F)c1 | i
Cc1ccc(C)c(NC(=O)COc2c(C)cc(Br)cc2C)c1 | 23%
O=C(c1cccc2ccccc12)N1CCN(c2ccc([N+](=O)[O-])c(NCc3ccccc3)c2)CC1 | i
O=C(NNC(=O)c1ccccc1I)Nc1cccc(Cl)c1 | i
COC(=O)c1c(NC(=O)c2c(F)cccc2F)sc2c1CCC(C(C)(C)C)C2 (stereo unspecified) | 30%
CS(=O)(=O)N(CC(=O)Nc1ccc(F)c(Cl)c1)C1CCCCC1 | i
COc1ccc(Cl)cc1NC1=C(Cl)C(=O)N(c2cccc(Cl)c2)C1=O | i
Cc1ccc(NC(=O)C(=O)N2CCCCC2)cc1 | i
CC(C)NCCCOc1ccc(Cl)cc1Br | i
O=C(Nc1ccc([N+](=O)[O-])cc1)OCCN1CCOC1=O | i
CC(=O)NC(Cc1c[nH]c2ccccc12)C(=O)NC1CCCCC1 (stereo unspecified) | i
O=C(Nc1ccccc1F)C1CC(=O)N(c2ccccc2F)C1 (stereo unspecified) | i
O=C(CSc1nc2ccc(NC(=O)CSc3nnnn3-c3ccccc3)cc2s1)NCc1ccccc1 | 0%
CCCn1nnc(NC(=O)c2ccco2)n1 | i
CN1C2=C(C(=O)CC(C)(C)C2)C(c2cc(Br)ccc2O)C2=C1CC(C)(C)CC2=O | 3%

# (continued)
SMILES	Mtb growth
Cc1ccc(S(=O)(=O)N2CCCC(C(=O)N3CCC4CCCCC4C3)C2)cc1 (stereo unspecified)	8%
Nn1c(SCC(=O)Nc2cc(C(F)(F)F)ccc2Cl)nnc1C1CCCCC1	i
COc1ccc(C)cc1S(N)(=O)=O	i
Cc1ccccc1CN1C(=O)C(O)(c2c[nH]c3ccccc23)c2ccccc21 (stereo unspecified)	11%
CC(C)CC(=O)Nc1ccc(N2CCN(c3c(F)c(F)c(F)c(F)c3F)CC2)cc1	i
CCOC(=O)c1ccc(NC(=S)Nc2ccc(OC)cc2C)cc1	9%
O=C(CN1C(=O)c2cccc3cccc1c23)N1CCOCC1	i
Cc1cc(C)cc(NC(=O)c2ccc(CSc3nnc(N)s3)cc2)c1	i
COc1ccc(CSc2nnc(-c3ccncc3)n2N)cc1	i
CCCOc1ccc(CC(=O)NC(C)Cc2ccccc2)cc1OC (stereo unspecified)	i

# Remaining list, next part:
SMILES	Mtb growth
COCc1cc(C)nc(SCC(=O)Nc2ccc(Oc3ccccc3)cc2)c1C#N	i
O=C(CC1c2ccccc2Oc2ccccc21)NCCOc1ccccc1Cl	6%
O=C1CC(c2nc3ccccc3[nH]2)CN1c1cccc2ccccc12 (stereo unspecified)	i
COc1cccc(C(=O)NCCC2(c3ccc(C)cc3)CCOC(C)(C)C2)c1 (stereo unspecified)	2%
CCCOc1ccc(C(=O)Nc2ccc(N(CC)CC)cc2C)cc1	2%
O=C(O)c1ccccc1NC(=O)c1cc2ccccc2oc1=O	i
COC(=O)c1cc(NC(=O)Nc2cc(OC)ccc2OC)cc(C(=O)OC)c1	i
Cc1c(NCc2cc(Br)ccc2O)c(=O)n(-c2ccccc2)n1C	i
CCN(CC)S(=O)(=O)c1cc(C(=O)Nc2cc(C)on2)c(Cl)cc1Cl	i
O=C(Nc1ccc(C(F)(F)F)cc1)C1CCCO1 (stereo unspecified)	i

# Other records
SMILES	Mtb growth
COc1ccccc1OCC(=O)Nc1ccccc1C(=O)Nc1cccc(C(=O)O)c1	i
O=C(O)C1C2C=CC(C2)C1C(=O)N1CCC(Cc2ccccc2)CC1 (stereo unspecified)	i
O=[N+]([O-])c1ccc(NC(=S)NCc2ccc(Cl)c(Cl)c2)cc1	1.8µg/mL*
Oc1ccccc1-c1n[nH]c(/C=C/c2cccs2)n1	?
CCCNc1nc(Nc2ccc(C)cc2)nc(N2CCOCC2)n1	7.7µg/mL*
N#Cc1ccc(-c2ccc(Cl)c(Cl)c2)o1	i
Cc1ccc(C(=O)CSc2nnc(-c3cccs3)n2C)o1	i
O=C(Nc1ccc(S(=O)(=O)N2CCCC2)cc1)c1sc2cccc(F)c2c1Cl	i
Oc1ccccc1-c1csc(-c2ccccc2)n1	i
CS(=O)(=O)N(CC(=O)Nc1ccc(CC#N)cc1)c1ccccc1Br	i

# Sorted by count of non-hydrogen atoms (highest first): three of the compounds above.
SMILES	Mtb growth
CCCNc1nc(Nc2ccc(C)cc2)nc(N2CCOCC2)n1	7.7µg/mL*
Oc1ccccc1-c1n[nH]c(/C=C/c2cccs2)n1	?
Oc1ccccc1-c1csc(-c2ccccc2)n1	i

# Next records follow:
SMILES	Mtb growth
COc1ccc(C(=O)Nc2ccccc2C(=O)NC(C(=O)Nc2ccccc2)C(C)C)cc1 (stereo unspecified)	i
O=C(NCCN1CCOCC1)C(=O)Nc1ccc2c(c1)OCO2	i
Cc1cccc(-c2csc(NC(=O)c3c(F)cccc3F)c2C(=O)OC(C)C)c1	2%
CC(OC(=O)CNS(=O)(=O)c1ccc(Cl)c(Cl)c1)c1ccccc1 (stereo unspecified)	?
CS(=O)(=O)N(CC(=O)NCCc1ccccc1)C1CCCCC1	i
Cc1ccc(/C=N/N=C2/NC(=O)C(CC(=O)Nc3ccc(Cl)cc3)S2)o1 (stereo unspecified)	i
CC(=O)c1ccc(N2CCN(C(=O)c3ccco3)CC2)cc1	i
Cc1sc(NC(=O)c2ccco2)c(C(=O)NCc2cccnc2)c1C	i
Cc1ccc(C(=O)N(Cc2ccccc2)C(C)(C)C)cc1	9%
CCn1c2ccccc2c2cc(NC(=O)C3CC3)ccc21	i

# (continued)
SMILES	Mtb growth
Cc1ccnc(NC(=O)c2ccc(C(C)C)cc2)c1	i
Cc1cc(S(=O)(=O)N2CCN(c3ccccc3C)CC2)ccc1F	3%
O=C(O)CCCC(=O)Nc1ccc(NC(=O)c2ccco2)cc1	i
CC(=O)Nc1ccc2oc(-c3ccc(C)c(Cl)c3)nc2c1	i
CCNC(=S)/N=C(\N)Nc1nc(C)c2cc(C)ccc2n1	49%
CSc1cccc(NC(=O)CN(c2ccc(Cl)cc2C)S(=O)(=O)c2ccccc2)c1	i
COC(=O)C1=CN(C2CCCC2)C=C(C(=O)OC)C1c1ccccc1C(F)(F)F	i

# Five records drawn at random from those above, as already listed:
SMILES	Mtb growth
CN(c1ccccc1C(=O)NCC1CCCO1)S(C)(=O)=O (stereo unspecified)	2%
Cc1sc(NC(=O)c2ccco2)c(C(=O)NCc2cccnc2)c1C	i
Cc1ccc(C)n1NC(=O)c1ccc(O)cc1	i
CCCCOc1ccc(C(=O)NC(=S)Nc2ccc(NC(=O)c3ccccc3Cl)c(OC)c2)cc1	i
Oc1ccccc1-c1csc(-c2ccccc2)n1	i

# Screening results deposited in PubChem BioAssay by Southern Research Institute.
